HSV augment: increases HSV replication in cells | HSV replication augmentation in cells, fold increase | maximum fold increase | 220,000 compounds, 0.005% hits | AID 1956;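 active means peak rise of 1.5-fold or more in the series; tested in PC3 cells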;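 further: first round at 10 µM; read as green reporter fluorescence; hits show the peak of a series up to 25 µM; 1 = signal of infected wells without compound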
INS promoter inh: TRM-6 insulin promoter activity inhibition. TRM-6 cells (human fetal islet line), insulin promoter-eGFP reporter, imaging; reporter expression induced with tamoxifen. inhibition, % at 2 µM. AID 1273. 130,000 compounds, 0.9% hits;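 active means inhibition above the mean plus 3 SD, with well images judged a real hit on visual review, cut at about 60% in these data, passing the limit was not always enough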
GALR2 ag: agonists of human galanin receptor 2 (GALR2); O43603; GALR2-expressing cells, agonist activation read-out; activation, %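 (tested at 5 µM)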; 140,000 compounds, 0.48% hits; AID 803;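 active means above mean plus 3 SD of all compounds, about 5% in these data, not always enough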;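 further: 0% = vehicle buffer wells and 100% = reference agonist at full effect; tested in CHO reporter cells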
Target sequence (O43603 whole entry, looked up): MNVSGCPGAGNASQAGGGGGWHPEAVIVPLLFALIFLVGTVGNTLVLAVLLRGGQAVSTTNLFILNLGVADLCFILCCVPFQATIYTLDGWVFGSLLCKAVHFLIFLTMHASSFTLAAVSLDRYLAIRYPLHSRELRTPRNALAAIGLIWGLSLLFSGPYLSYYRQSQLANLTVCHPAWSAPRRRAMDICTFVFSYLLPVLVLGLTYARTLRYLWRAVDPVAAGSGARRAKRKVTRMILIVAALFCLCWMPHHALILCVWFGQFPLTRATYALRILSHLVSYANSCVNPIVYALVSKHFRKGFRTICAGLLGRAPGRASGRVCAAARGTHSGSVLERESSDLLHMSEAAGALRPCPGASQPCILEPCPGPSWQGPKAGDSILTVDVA
RGS16-Gao: modulates binding between human RGS16 and Galphao; O15492+P09471; bead-based flow cytometry RGS16-Galphao binding, fluorescence; actives lie on both sides; binding response (% of control), % at 10 µM; 220,000 compounds, 0.38% hits; AID 1441;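 active means below 25% or above 175%, edge rows of some plates excepted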;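 further: Galphao activated by GDP with aluminum fluoride before binding; 100% = wells without compound and 0% = beads without RGS; some results beyond the cut were filed as inactive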
Target sequence (O15492 whole entry, looked up): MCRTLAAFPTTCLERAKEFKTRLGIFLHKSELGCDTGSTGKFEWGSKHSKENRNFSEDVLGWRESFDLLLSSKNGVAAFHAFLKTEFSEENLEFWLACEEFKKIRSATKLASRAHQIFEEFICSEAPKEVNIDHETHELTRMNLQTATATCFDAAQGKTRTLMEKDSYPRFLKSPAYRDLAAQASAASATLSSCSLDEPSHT
Target sequence (P09471 whole entry, looked up): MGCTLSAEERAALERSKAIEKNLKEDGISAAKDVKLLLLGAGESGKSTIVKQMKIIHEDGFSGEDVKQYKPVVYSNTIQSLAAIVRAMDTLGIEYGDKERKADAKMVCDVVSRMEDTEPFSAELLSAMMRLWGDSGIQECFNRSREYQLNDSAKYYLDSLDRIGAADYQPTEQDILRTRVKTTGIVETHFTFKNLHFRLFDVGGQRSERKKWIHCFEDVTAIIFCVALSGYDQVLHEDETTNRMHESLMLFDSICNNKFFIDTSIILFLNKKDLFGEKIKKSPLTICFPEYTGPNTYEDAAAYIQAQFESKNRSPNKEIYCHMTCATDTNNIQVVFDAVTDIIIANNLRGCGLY
PKD1 inh: inhibitors of human PKD1 kinase | PKD1 kinase fluorescence polarization assay | inhibition, %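 (about 10 µM by stock and volumes)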 | 200,000 compounds, 0.056% hits;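 active means inhibition of 50% or more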;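 further: controls were vehicle for no effect and a reference inhibitor for full effect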
INS promoter inh cell count: also measured in INS promoter inh; calls as there; normalized cell count, %; measured here: cell count, toxicity; reference of the scale not given here;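 cells exposed to compound for 48 h; stained nuclei by imaging scaled within each plate; lower means fewer cells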
HSV augment primary fold: further read-out of HSV augment, marked with its call; fold increase; compound at 10 µM; measured here: primary screen fold increase 10 uM; tested in PC3 cells;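 GFP signal in the first replicate; 1 = infected wells without compound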
* marks the source's active call; other numbers are inactive results; i = inactive; · = not tested or not shown; [ ] = another dose, or the depositor's remark. Rows are unselected, and some 1.3% of all compounds hit somewhere here.

SMILES	HSV augment	HSV augment primary fold	INS promoter inh	INS promoter inh cell count	GALR2 ag	RGS16-Gao	PKD1 inh
COc1cccc(N(CC(=O)N/N=C(\C)c2cccs2)S(C)(=O)=O)c1	i	0.96	-17	116	0.0	109	-13
O=S(=O)(c1ccc2ccccc2c1)N1CCN(C(=S)Nc2ccc(F)cc2)CC1	i	0.75	·	·	-2.5	105	-3
C=CCON/C(CCC)=C1\C(=O)C(C(=O)OC)C(C)(C)CC1=NC (centres undefined)	i	0.82	12	109	·	98	-1
Cc1ccc(C)n1-c1ccc(-c2ccnc(N)n2)cc1	i	0.92	·	·	·	98	1
O=C(c1ccccc1)N1CCN(CC(O)COCC2CC=CCC2)CC1 (centres undefined)	i	0.9	·	·	-1.5	38	-4
N#CC1=C(N)S[C@@H](C(=O)c2ccc(F)cc2)[C@@H]1c1cccs1	i	0.94	41	128	-1.6	102	10
COc1ccccc1NC(=O)CSc1nnnn1Cc1ccccc1	i	0.93	45	133	-1.0	104	7
Cc1cc(C(=O)NCc2ccccc2Br)no1	i	0.95	24	162	-0.9	105	1
CCCS(=O)(=O)NCc1cn2c(C)csc2n1	i	0.94	·	·	-2.0	102	2
CCc1nnc(NC(=O)CSc2nnc(COc3ccccc3)n2Cc2ccccc2)s1	i	0.85	12	98	-1.2	102	-1

Compound profiles, from the list above:
Results for `O=S(=O)(c1ccc2ccccc2c1)N1CCN(C(=S)Nc2ccc(F)cc2)CC1` → HSV augment: i; HSV augment primary fold: 0.75; INS promoter inh: ·; INS promoter inh cell count: ·; GALR2 ag: -2.5; RGS16-Gao: 105; PKD1 inh: -3
Results for `Cc1ccc(C)n1-c1ccc(-c2ccnc(N)n2)cc1` → HSV augment: i; HSV augment primary fold: 0.92; INS promoter inh: ·; INS promoter inh cell count: ·; GALR2 ag: ·; RGS16-Gao: 98; PKD1 inh: 1

(cont.)
SMILES	HSV augment	HSV augment primary fold	INS promoter inh	INS promoter inh cell count	GALR2 ag	RGS16-Gao	PKD1 inh
O=C(OC(C(=O)Nc1ccc(Cl)cc1C(F)(F)F)c1ccccc1)C1=COCCO1 (centres undefined)	i	1.1	·	·	-0.8	99	0
Cn1c(Sc2ccccc2Cl)c(C=O)c2ccccc21	·	·	-3	115	-2.5	104	13
O=C1C2C3CCC(C3)C2C(=O)N1Cc1ccccc1 (centres undefined)	i	0.98	35	101	-1.9	70	-6
COc1ccccc1C(=O)O/N=C(\N)c1ccccc1Cl	i	1	30	88	-2.1	102	-1
COc1ccccc1Nc1nc(N)nc(CSC(=S)N2CC(C)CC(C)C2)n1 (centres undefined)	i	0.9	·	·	0.9	103	-8
Cn1nnc(NC(=O)c2ccco2)n1	i	0.78	36	86	0.3	103	-6
O=C(CSc1nc2c(c(=O)n1-c1ccc(Cl)cc1)SCC2)Nc1ccc2c(c1)OCCO2	i	0.86	10	158	0.0	96	-5
O=[N+]([O-])c1ccc(O)c(-c2nn[nH]n2)c1	i	0.96	19	101	-3.4	49	-4
Cc1ccc(Cn2ccc(NC(=O)c3c(-c4ccccc4Cl)noc3C)n2)cc1	i	0.98	-24	92	-3.0	101	-13
Cc1cc(NC(=O)CSc2nc3ccccc3[nH]2)no1	i	0.83	43	91	-1.0	106	-4
O=c1c2c(-c3ccccc3)csc2nc2c3ccccc3c(NCCN3CCOCC3)nn12	i	0.56	-191	25	·	111	0
Cc1ccccc1CSCC(=O)NC(=O)NC(C)(C)C	i	0.92	-58	75	-0.8	100	-9
S=C(NCCCn1ccnc1)NC1CCCCC1	i	0.92	3	115	-1.9	90	-6
Cc1nc2nc(C)c(CCC(=O)N3CCN(c4ccccc4)CC3)c(C)n2n1	i	0.79	·	·	-2.8	102	8
CC(=O)c1ccccc1OCCOc1ncnc2sccc12	i	0.93	·	·	·	99	0
Cc1ccc(NC(=O)Nc2nnc(-c3ccccc3)o2)cc1	i	0.96	·	·	·	108	-5
Nn1c(SCC(=O)Nc2cc(S(=O)(=O)N3CCOCC3)ccc2Cl)nnc1-c1cccnc1	i	0.95	·	·	·	102	-8
NC(=S)c1cc2cc(Br)ccc2oc1=O	i	0.9	40	116	·	85	7
Cc1ccc(/C=N/n2cnc3sc(-c4ccccc4)cc3c2=O)o1	i	0.92	14	153	0.4	127	0
CCOc1ccc(OCc2ccc(C(=O)Nc3ccc(Cl)cn3)o2)cc1	i	1	-14	132	-2.1	98	4
O=C(O)c1cccc(S(=O)(=O)NCc2cccs2)c1	i	0.84	·	·	-3.1	105	7
CCC1(CC)C(=O)N(C)C(=O)NC1=Nc1ccc(OC)cc1	i	0.97	22	162	-1.9	102	2
CC(C)OCCCNC(=O)C1CCC(CNS(=O)(=O)c2ccccc2)CC1 (centres undefined)	i	0.98	-28	60	-3.0	105	-8
Oc1ccc2nc(Cc3ccccc3)[nH]c2c1	i	0.9	·	·	1.2	99	12
CCOC(=O)C1C(=O)NCC2CCCC21 (centres undefined)	i	0.95	9	86	-1.4	64	6
CC(=O)Nc1nc2c(s1)C(=O)NCCC2	i	0.99	·	·	·	107	2
COC(=O)c1ccc(NC(=O)CSc2nnc(CNc3ccc(OC)cc3)n2C)cc1	i	1	0	125	0.4	96	0
O=C(NCC1COc2ccccc2O1)C1CCCN(S(=O)(=O)c2cnc[nH]2)C1 (centres undefined)	i	1.1	-60	120	-0.6	·	-10
CCn1c(SCc2cc(=O)[nH]c3ccccc23)nnc1C1CC1	i	1.1	·	·	-1.2	92	-6
CC1(C)CC(=O)C(C(c2ccco2)C2C(=O)CC(C)(C)CC2=O)C(=O)C1	i	0.98	-289	140	-1.7	105	6
O=C(CN(c1ccccc1)S(=O)(=O)c1ccccc1)N1CCN(Cc2ccc3c(c2)OCO3)CC1	i	1	17	103	-0.6	97	5
N=c1c2c(ncn1CCN1CCOCC1)Oc1ccc3ccccc3c1C2c1ccccc1 (centres undefined)	i	0.71	28	190	1.2	121	2
COC(=O)Nc1nn(-c2ccc(C)cc2)c(=O)c(C#N)c1C	i	0.88	47	118	·	104	-6
CCn1c(C)nc2cc(C(=O)NNS(=O)(=O)c3ccc(C)c(C)c3)ccc21	i	0.9	-11	44	-0.9	100	2
CNC(=O)Nc1cccc2cccnc12	i	1	·	·	·	101	·
CC(C)NC(=O)/C(=C/c1ccco1)c1ccccc1	i	1.1	·	·	-3.8	100	-1
COc1ccc(CN(C)Cc2nc(Cc3ccccc3Cl)no2)cc1OC	i	1.1	·	·	·	118	2
C1=CC2CCC1ON2c1ccccc1 (centres undefined)	i	1	-81	96	-0.5	95	12
CS(=O)(=O)N(Cc1ccccc1)c1ccccc1C(=O)Nc1ccccc1C(=O)NCc1ccco1	i	0.98	3	102	-2.9	114	-4
O=c1ccc2ccc(Oc3ccc(Cl)cc3[N+](=O)[O-])cc2o1	i	1.8	·	·	·	100	-6

Continued; the last four above are carried over.
SMILES	HSV augment	HSV augment primary fold	INS promoter inh	INS promoter inh cell count	GALR2 ag	RGS16-Gao	PKD1 inh
COc1ccc(CN(C)Cc2nc(Cc3ccccc3Cl)no2)cc1OC	i	1.1	·	·	·	118	2
C1=CC2CCC1ON2c1ccccc1 (centres undefined)	i	1	-81	96	-0.5	95	12
CS(=O)(=O)N(Cc1ccccc1)c1ccccc1C(=O)Nc1ccccc1C(=O)NCc1ccco1	i	0.98	3	102	-2.9	114	-4
O=c1ccc2ccc(Oc3ccc(Cl)cc3[N+](=O)[O-])cc2o1	i	1.8	·	·	·	100	-6
Cc1ccc(S(=O)(=O)Nc2ccccc2C(=O)Nc2nc(-c3ccc(F)cc3)cs2)cc1	i	0.71	5	107	-0.6	55	4
COc1cc(NC(=O)Cc2ccccc2)c(C(=O)O)cc1OC	i	0.85	·	·	·	104	-2
Cc1ccc(C(O)(COC(=O)C(C)C)COC(=O)C(C)C)c(O)c1	i	0.94	·	·	·	92	-8
Cc1ccc(S(=O)(=O)NCCC(=O)Nc2ccc(C)c(Cl)c2)cc1C	i	0.88	-23	99	-1.2	119	8
CCOC(=O)C(Cc1cc(C(C)=O)ccc1OC(C)C)C(=O)OCC	i	1	0	77	-1.7	103	4
CCCN1C(=O)COc2ccc(-c3n[nH]c(=O)c4ccccc34)cc21	i	1.1	·	·	·	83	5
COC(=O)CSc1nnc(-c2ccccc2OC)n1-c1ccc(C)cc1	i	1	-9	49	-0.3	87	-6
O=C(CSc1nc2ccccc2o1)Nc1nccs1	i	1	·	·	·	100	-3
COC(=O)C1C(=O)N2CCCSC2=C(C#N)C1c1cccs1 (centres undefined)	i	0.91	·	·	-0.7	97	-2
COc1ccc(/C(C)=N/OC/C(O)=C(\C#N)c2nc3ccccc3[nH]2)cc1OC	i	0.89	-12	111	·	100	7
O=C(O)C1CCCN(S(=O)(=O)c2ccc(Cl)s2)C1 (centres undefined)	i	0.98	·	·	-0.5	94	-5
COc1ccc(C2C3=C(N=C4SCC(=O)N42)c2ccccc2CC3)cc1OC (centres undefined)	i	1.1	-9	96	-1.6	112	9
O=c1[nH]n(CC2COC3(CCCCC3)O2)c(=O)c2ccccc12 (centres undefined)	i	1	-50	101	-0.4	100	6
Cc1ccc2c(CSc3nnnn3C)cc(=O)oc2c1	i	1	-16	115	·	98	-3
CCSC1=NC2(CCCCC2)Nc2sc3c(c21)CCCC3	i	0.85	22	69	-1.3	92	-5
O=C1c2cccnc2C(Nc2ccccc2Br)N1Cc1ccco1 (centres undefined)	i	0.97	-79	88	·	103	0
COc1cc(NC(=S)Nc2ccc(Br)cc2Cl)c(OC)cc1Cl	i	0.94	·	·	-1.1	148	3
Fc1cc(F)c2nc(Nc3nc4c(F)cccc4s3)sc2c1	i	0.73	36	58	0.7	192*[activator]	-1
CCOc1ccc(NS(=O)(=O)c2ccc(NC(=O)[C@@H]3CCCC[C@@H]3C(=O)O)cc2)cc1	i	0.96	10	102	-1.3	99	-11
COc1ccc(OC)c(C2C(C(=O)Nc3ccccc3OC)=C(C)Nc3nc(CCCO)nn32)c1 (centres undefined)	i	1.3	·	·	-0.7	105	-3
COC(=O)CCC(=O)OC1(C)C(=O)C=C2C=C(C3CC3)N(CCc3c[nH]c4ccccc34)C=C2C1=O (centres undefined)	i	1.3	·	·	·	101	·
CC(C)(C)NC[C@H](O)COc1nsnc1N1CCOCC1	i	0.93	-5	134	-0.9	104	11
O=C1NCC(COCC2CC=CCC2)O1 (centres undefined)	i	0.88	·	·	-2.9	101	-15
CC(C)C[C@H](NC(=O)Nc1ccc(Oc2ccccc2)cc1)C(=O)O	i	0.93	-36	100	-2.0	102	-1
CC1Cc2ccccc2N1C(=O)CCS(=O)(=O)c1cccs1 (centres undefined)	i	0.9	12	97	1.0	634	-9
CCCCNC(=O)c1ccc(N2CCC3(CC2)OCCO3)c([N+](=O)[O-])c1	i	0.98	27	116	-1.3	21*	3
Cc1ccc(-c2nc(C)sc2CC(=O)NCc2ccco2)cc1	i	0.88	-39	61	-2.0	99	1
COC(=O)c1c(N)sc(C(=O)N2CCOCC2)c1C	i	0.98	-40	114	-1.1	97	1
CC(C)S(=O)(=O)C/C(N)=N/OS(=O)(=O)c1ccc(Cl)cc1	i	1.2	·	·	·	105	·
CCn1c(=O)c(=O)[nH]c2cc(C(=O)NCC3CCCCC3)ccc21	i	0.96	27	63	-0.3	58	-18
CCOc1ccccc1NC(=O)C(CC(C)C)NC(=O)C1CCC(C)CC1 (centres undefined)	i	0.87	-37	96	-1.8	101	-16
CCC(CC)N1CCN(CCc2ccccc2)C(CCO)C1 (centres undefined)	i	0.93	0	127	·	102	-7
CCN1CCCc2cc(CN(CCN3CCOCC3)C(=S)Nc3ccccc3OC)ccc21	i	1	-26	86	·	105	-5
Cc1cc(C)nc(SCc2nnc(SCC(=O)Nc3c(C)cccc3C)o2)n1	i	0.7	44	33	-0.2	103	0
CCOC(=O)C1=C(NC#N)OC(C)=C(C)C1c1ccc(O)cc1 (centres undefined)	i	0.95	3	136	-1.7	106	-1
Cc1cc(C)n2nc(C(=O)NCc3ccccc3)nc2n1	i	0.94	0	43	-2.2	100	-1
CCC(C)N(C(=O)C(F)(F)F)C(C(=O)NC1CCCCC1)c1ccncc1 (centres undefined)	i	0.86	-52	74	-2.1	106	4
CCSc1nc2c(sc3nc(C)cc(C)c32)c(=O)[nH]1	·	·	42	87	-1.6	94	-9
CCc1ccc(NC(=O)CSc2n[nH]c(C)c2[N+](=O)[O-])cc1	i	0.97	-61	111	0.3	111	-6

Assay outcomes: PubChem, several laboratories
